Cruzain inh Det: inhibitors of Trypanosoma cruzi cruzain with detergent | P25779 | purified cruzain, Z-FR-AMC fluorescence, 0.01% Triton | Potency, µM, for inactives: max response, negative = inhibition, most hits filed as inhibitors | 200,000 compounds, 0.43% hits;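 further: plate controls were neutral wells for no effect and buffer without enzyme for full effect; nearly all actives have a fitted effect of over 40% in size; top concentration of the series not given in the record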
Target sequence (P25779 123-467 limits assumed): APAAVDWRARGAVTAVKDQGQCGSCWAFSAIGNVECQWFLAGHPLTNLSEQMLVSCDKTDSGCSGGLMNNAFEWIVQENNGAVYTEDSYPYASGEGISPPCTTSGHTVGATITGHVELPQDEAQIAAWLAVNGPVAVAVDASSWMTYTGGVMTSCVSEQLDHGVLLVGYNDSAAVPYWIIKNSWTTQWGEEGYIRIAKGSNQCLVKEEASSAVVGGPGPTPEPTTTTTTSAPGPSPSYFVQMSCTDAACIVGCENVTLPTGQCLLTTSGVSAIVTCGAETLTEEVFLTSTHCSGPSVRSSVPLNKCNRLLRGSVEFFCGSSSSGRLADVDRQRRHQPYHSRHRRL
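Cysteine protease activity tested under reducing, mildly acidic conditions (100 mM sodium acetate pH 5.5, 5 mM DTT) plus 0.01% Triton X-100. Cruzain 1.5 nM; substrate Z-FR-AMC 2 uM; 15 min compound preincubation at room temperature.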
Marburg entry inh: blocks Marburg virus binding to or entry into cells | Marburg virus pseudotyped entry inhibition, cell reporter; control for the full effect not named in the record; about a third of the inactives were read at about 46 µM | Potency, µM (top dose mostly 37.8 µM), for inactives: at the highest dose activity change, negative = inhibition, usual class: inhibitors | 300,000 compounds, 1.8% hits; active = well fitted inhibition curve with a large enough effect; inconclusive = small, poorly fitted or top-dose-only effect, or effect the other way; inactive = flat fitted curve, though single readings scatter; tested in HEK293 cells; about a fifth of its hits are not listed in these tables; further: on the % scale 0 is the no-effect control and ±100 the full control effect; luciferase read-out
LASV entry inh: Lassa virus entry inhibition. Lassa virus pseudotype entry inhibition, cell reporter; control for the full effect not named in the record. Potency, µM (highest dose often 37.9 µM), for inactives: at the highest dose activity change, negative = inhibition, hits mostly inhibitors. 300,000 compounds, 1.2% hits. AID 540256; active means well fitted inhibition curve with a large enough effect; inconclusive means small, poorly fitted or top-dose-only effect, or effect the other way; inactive means flat fitted curve, though single readings scatter; tested in HEK293 cells; further: on the % scale 0 is the no-effect control and ±100 the full control effect; nearly all actives have a fitted effect of over 50% in size; luciferase read-out
2A StopGo: lowers the luciferase signal of an FMDV 2A StopGo reporter; 410,000 compounds, 1.2% hits; Potency, µM (titrated, usually from 57.9 µM), inactives show at the top dose signal change, negative = less light; human cells with a luciferase reporter of 2A StopGo recoding; control for the full effect not named in the record; active = well fitted falling curve with a large enough effect; inconclusive = small, poorly fitted or top-dose-only effect; inactive = no such curve, though single readings can be large or run the other way; tested in HEK293T cells; further: on the % scale 0 is the no-effect control and ±100 the full control effect; nearly all actives have a fitted effect of over 45% in size; luciferase light after 4 h
SARS PLpro yeast: blocks SARS-CoV papain-like protease in a yeast assay. S. cerevisiae expressing SARS-CoV PLpro, growth rescue; control for the full effect not named in the record. Potency, µM (series often up to 32.9 µM), for the others: at the top dose activity, positive = growth rescue. 330,000 compounds, 0.19% hits; active means well fitted rising curve with a large enough effect; inconclusive means small, poorly fitted or top-dose-only effect; inactive means no such curve, though single readings can be large or run the other way; further: 0% is about no effect; nearly all actives have a fitted effect of over 55% in size; growth read by luminescence after 48 h
NS1 inh: inhibitors of influenza NS1 protein function. Potency, µM (doses to about 46.1 µM), inactives show at the highest dose activity, positive = more growth. S. cerevisiae slowed by influenza A NS1, growth recovery by OD600. 270,000 compounds, 0.4% hits; active means well fitted rising curve with a large enough effect; inconclusive means small, poorly fitted or top-dose-only effect; inactive means no such curve, though single readings can be large or run the other way; further: nearly all actives have a fitted effect of over 50% in size
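Read-out: OD600 growth recovery of NS1-expressing budding yeast. Cells grown overnight at 30C in -URA glucose medium, washed, resuspended and diluted 1:100 in 2% galactose assay medium, pH 6.0. Same strain lacking NS1 served as positive control.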
RE007 growth inh: less growth of the S. pombe RE007 Vpr strain. S. pombe RE007 Vpr strain, BacTiter-Glo ATP luminescence, 24 h; control for the full effect not named in the record. Potency, µM (top dose mostly 92.2 µM), for the others: at the highest dose activity change, negative = less growth. 360,000 compounds, 0.21% hits; active = well fitted falling curve with a large enough effect; inconclusive = small, poorly fitted or top-dose-only effect; inactive = no such curve, though single readings can be large or run the other way;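 further: on the % scale 0 is the no-effect control and ±100 the full control effect; nearly all actives have a fitted effect of over 50% in size; the assay follows cell death caused by Vpr and the record does not say whether a fall means rescue or toxicity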
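Fission yeast strain RE007, carrying one chromosomally integrated HIV-1 vpr copy, was seeded at OD 0.01 in PMG+AL medium with 23 nL pinned compound. After 24 h at 30 °C and 99% humidity, viability was read by BacTiter-Glo luminescence.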
Cruzain noTriton: inhibitors of Trypanosoma cruzi cruzain without detergent | Potency, µM, for the others: max response, negative = inhibition, usual class: inhibitors | purified cruzain, Z-FR-AMC fluorescence, no detergent | AID 1476 | P25779 | 200,000 compounds, 2.3% hits;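 further: plate controls were enzyme without inhibitor for no effect and buffer without enzyme for full effect; nearly all actives have a fitted effect of over 40% in size; top concentration of the series not given in the record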
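Purified cruzain at 1.5 nM, pre-incubated 15 min with compound at room temperature in 100 mM sodium acetate pH 5.5, 5 mM DTT, 0.00005% Triton X-100. Reaction started with 2 uM Z-FR-AMC; AMC fluorescence increase over 60 s gives rate.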
Numbers without * were called inactive; ? = inconclusive; · = not tested or not shown; [ ] = remark or other dose. Unless noted, the call rests on the fitted dose curve; in most records, active means well fitted curve in the direction sought with a large enough effect; inconclusive means small, poorly fitted or top-dose-only effect, or another doubt; inactive means no such curve, though single readings can be large; an effect the other way counts as inactive or inconclusive. Potency means the concentration at half of the fitted maximal effect.

(1) CCOC(=O)Cn1c(=O)c2c(nc(Br)n2Cc2ccc(Cl)cc2)n(C)c1=O
(2) CCN(CC(=O)NCc1ccco1)S(=O)(=O)c1ccc(F)cc1
(3) Cc1nn(Cc2ccc(Cl)c(Cl)c2)c(C)c1NC(=O)c1noc2c1CCCCC2
(4) CC(C)[C@H](NC(=O)c1cccc(CN(Cc2ccccc2)C(=O)/C=C/c2ccccc2)c1)C(=O)O
(5) CC(C)NC(=O)CC(=O)N/N=C\c1ccccc1C(=O)O
(6) COC(=O)c1ccc2[nH]c3c(c2c1)CC(C)CC3 (stereo not given)
(7) CCN(CC)S(=O)(=O)c1ccc(N2CCOCC2)c(NC(=O)COc2ccccc2)c1
(8) CCOc1cc(C(c2c(C)[nH][nH]c2=O)c2c(C)[nH][nH]c2=O)cc([N+](=O)[O-])c1O
screen / no.	1	2	3	4	5	6	7	8
Cruzain inh Det	7.0%	·	1.1%	·	·	·	·	·
Marburg entry inh	14%	1%[46.1 µM]	-11%	-5%[46.1 µM]	14%[46.1 µM]	·	·	-4%[46.1 µM]
LASV entry inh	0%	11%	3%	17%[46.1 µM]	-3%	·	·	14%[46.1 µM]
2A StopGo	-12%	0%	?	0%	-17%	58%[activator]	19%	-22%
SARS PLpro yeast	3%	-2%	0%	·	-2%	-2%	3%	11%
NS1 inh	-3%	2%	-42%	·	-1%	-5%	12%	4%
RE007 growth inh	2%	-2%	0%	1%	28%	-4%	4%	6%
Cruzain noTriton	8%	·	21%	·	·	·	·	·

Results in sequence from the list.
Nos. 1 to 8 in 2A StopGo, in turn: -12%, 0%, ?, 0%, -17%, 58%[activator], 19%, -22%
Nos. 1 to 8 in SARS PLpro yeast, in turn: 3%, -2%, 0%, ·, -2%, -2%, 3%, 11%

(continued)
(9) O=C(Cn1cncn1)N/N=C/c1cccc(Cl)c1
(10) Oc1ccc(-c2csc(Nc3cccnc3)n2)cc1
(11) Cc1cccc([C@@H]2CN(C)CCc3c2cc(O)c(O)c3Cl)c1
(12) COCCn1c(SCC(=O)c2ccc(F)cc2)nc2cc(C(=O)NC3CCCC3)ccc2c1=O
(13) Cc1cc(OCc2cc(C(=O)N(C)CC3CCOCC3)no2)cc(C)c1Cl
(14) CCN(CC(=O)NC1CCS(=O)(=O)C1)S(=O)(=O)c1ccc(Cl)c(C(F)(F)F)c1 (stereo not given)
(15) Cc1ccc(S(=O)(=O)Nc2nc(C)c(NC(=O)OCCCl)s2)cc1
(16) COc1ccc(NC(=O)C(Cc2ccccc2)n2cccc2)cc1 (stereo not given)
screen / no.	9	10	11	12	13	14	15	16
Cruzain inh Det	·	-7.6%	-4.1%	1.2%	·	·	3.3%	·
Marburg entry inh	-5%	-28%	?	·	·	?	-3%	1%[46.1 µM]
LASV entry inh	?	15%	·	11%[46.1 µM]	·	?	8%	-22%
2A StopGo	14%	0%	-14%	0%	-13%	-14%	68%[activator]	-13%
SARS PLpro yeast	-3%	-3%	·	·	-2%	1%	7%	-8%
NS1 inh	2%	-32%	·	·	-2%	·	-2%	-5%
RE007 growth inh	6%	-1%	·	·	-5%	-7%	-5%	-9%
Cruzain noTriton	·	-12%	6%	2%	·	·	0%	·

Fetched by structure from above:
(3) Cc1nn(Cc2ccc(Cl)c(Cl)c2)c(C)c1NC(=O)c1noc2c1CCCCC2
(9) O=C(Cn1cncn1)N/N=C/c1cccc(Cl)c1
(12) COCCn1c(SCC(=O)c2ccc(F)cc2)nc2cc(C(=O)NC3CCCC3)ccc2c1=O
screen / no.	3	9	12
Cruzain inh Det	1.1%	·	1.2%
Marburg entry inh	-11%	-5%	·
LASV entry inh	3%	?	11%[46.1 µM]
2A StopGo	?	14%	0%
SARS PLpro yeast	0%	-3%	·
NS1 inh	-42%	2%	·
RE007 growth inh	0%	6%	·
Cruzain noTriton	21%	·	2%

Remaining list, next part:
(17) Cn1c(=O)[nH]c(=O)c2c1nc(CN1CCN(c3ccccc3F)CC1)n2CCCc1ccccc1
(18) CN(Cc1nc2ccccc2c(=O)[nH]1)Cc1nc2ccsc2c(=O)[nH]1
(19) COc1ccc(CNC(=O)Nc2ccc(C)cc2C)cc1
(20) O=C(COC(=O)CNC(=O)C1CCCCC1)Nc1ccc(Br)cc1Br
(21) CC(C)CC(=O)N1CCC(O)(CS(=O)(=O)Cc2ccccc2)CC1
(22) Cc1cc(C)cc(OCC(=O)Nc2ccccc2N2CCCCC2)c1
(23) CCOC(=O)c1ccc(NC(=O)CSc2nnc3c4ccccc4n(CC)c3n2)cc1
(24) CCOC(=O)c1ccc2c(c1)n(CCCS(=O)(=O)[O-])c(/C=C/c1ccc(Cl)cc1)[n+]2CC
screen / no.	17	18	19	20	21	22	23	24
Cruzain inh Det	-3.5%	·	·	·	8.4%	-9.0%	-5.8%	·
Marburg entry inh	?	-26%[46.1 µM]	·	1%	2%	?	-12%[46.1 µM]	-7%[46.1 µM]
LASV entry inh	-26%	2%	·	0%	-3%	?	-4%[46.1 µM]	7%
2A StopGo	·	-6%	17%	16%	6%	?	-18%	8%
SARS PLpro yeast	5%	0%	-1%	-10%	-1%	-3%	·	1%
NS1 inh	-8%	·	2%	·	0%	6%	·	1%
RE007 growth inh	8%	40%	4%	7%	-12%	11%	·	6%
Cruzain noTriton	?	·	·	·	-1%	-2%	-11%	·

(25) O=C(CSc1ncc(CO)n1Cc1ccccc1)Nc1nc2ccccc2s1
(26) COC(=O)c1ccc(CN2C(=O)NC(Cc3c[nH]c4ccccc34)C2=O)cc1 (stereo not given)
(27) O=C(COc1ccccc1)NCC(c1ccco1)N1CCCCC1 (stereo not given)
(28) Cc1cccc(C)c1NC(=O)CN
(29) O=[N+]([O-])c1cc(C(F)(F)F)ccc1NCCCCNS(=O)(=O)c1ccc2ccccc2c1
(30) COc1ccc(-n2ccn(CC(=O)Nc3ccc(C)cc3C)c(=O)c2=O)cc1
(31) CCN(C(=O)c1cc2c(=O)[nH]c3ccc(C)cc3c2s1)c1ccc(OC)cc1
(32) Cc1ccc(S(=O)(=O)N2CCC(C(=O)Nc3ccccc3N3CCCC3)CC2)cc1
screen / no.	25	26	27	28	29	30	31	32
Cruzain inh Det	-6.4%	·	·	·	-5.5%	-3.0%	·	·
Marburg entry inh	·	?	1%	?	?	·	?	-14%
LASV entry inh	-17%[46.1 µM]	3%	-1%	0%	21%	0%[46.1 µM]	-27%	-5%
2A StopGo	?	?	-6%	-6%	-2%	2%	-24%	-27%
SARS PLpro yeast	·	0%	3%	0%	-2%	·	0%	7%
NS1 inh	·	2%	·	2%	-6%	·	3%	·
RE007 growth inh	·	-18%	-8%	4%	6%	·	0%	5%
Cruzain noTriton	-6%	·	·	·	-3%	-3%	·	·

(33) CCOC(=O)Nc1ccc(S(=O)(=O)Nc2onc(C)c2C)cc1
(34) CC1(c2ccc(Cl)cc2Cl)NC(=O)N(CC(=O)Nc2ccc3[nH]c(=O)[nH]c3c2)C1=O (stereo not given)
(35) COc1ccc(/C=C/C(=O)c2ccc(NC(=O)c3cccs3)cc2)cc1OC
(36) COc1cccc(CNS(=O)(=O)c2ccc3c(c2)CCN3C(=O)C2CC2)c1
(37) CCn1cc(C(=O)NCCc2ccc(C)cc2)c(=O)c2cc(S(=O)(=O)N3CCC(C)CC3)ccc21
(38) CC1CCC(N2CC(=O)N(Cc3ccc4c(c3)OCO4)C(c3ccc(F)cc3)C2=O)CC1 (stereo not given)
(39) CCOc1ccccc1N1CCN(C(=O)C(F)(F)F)CC1
(40) COc1ccc(NC(=O)CN2C(=O)C3(SCC(=O)N3c3cccc(OC)c3)c3ccccc32)cc1 (stereo not given)
screen / no.	33	34	35	36	37	38	39	40
Cruzain inh Det	·	·	-7.6%	·	-3.7%	-2.7%	0.8%	-3.4%
Marburg entry inh	12%[14.2 µM]	9%	?	17%[46.1 µM]	?	?	1%	·
LASV entry inh	-14%	20%	?	0%	13%[46.1 µM]	?	15%	7%[46.1 µM]
2A StopGo	-22%	-22%	-16%	-3%	-10%	-13%	-25%	0%
SARS PLpro yeast	·	-4%	17%	-3%	·	-6%	-2%	·
NS1 inh	·	·	24%	·	·	3%	-1%	·
RE007 growth inh	-8%	13%	1%	-5%	·	-2%	3%	·
Cruzain noTriton	·	·	16%	·	-9%	7%	0%	-6%

(41) O=C(CN1CCCCCC1)Nc1cc([N+](=O)[O-])ccc1Cl
(42) O=C(Cc1ccc(S(=O)(=O)N2CCOCC2)s1)NCC1CCCCC1
(43) O=C1NC(=O)N(Cc2ccco2)C(=O)/C1=C\c1ccc(-c2ccc(F)cc2)o1
(44) COc1ccc(C(CNC(=O)c2oc3ccc(C)cc3c2C)N2CCCCC2)cc1 (stereo not given)
(45) CC(C)C[C@@H]1NC(=O)N(CCN2CCOCC2)C1=O
(46) COc1ccc(C)cc1N(C)C(=O)c1coc(=O)c2ccccc12
(47) CCCCOP(=O)(OCCCC)C1(C)CC(=O)CC(C)(C)C1 (stereo not given)
(48) CCOc1ccc(C(=O)Nc2ccc(Cc3ccncc3)cc2)cc1Br
(49) O=C(NNc1ccccc1)C(=O)NNc1ccccc1
screen / no.	41	42	43	44	45	46	47	48	49
Cruzain inh Det	·	0.3%	·	·	-0.5%	-3.9%	·	·	·
Marburg entry inh	1%[46.1 µM]	4%	-6%[14.2 µM]	·	7%	-9%	?	?	?
LASV entry inh	2%[46.1 µM]	6%	-24%	·	0%	4%	-12%[46.1 µM]	-5%[46.1 µM]	-16%[46.1 µM]
2A StopGo	22%	20%	?	-25%	-22%	5%	-6%	?	9%
SARS PLpro yeast	3%	15%	3%	-1%	-2%	-15%	·	-21%	·
NS1 inh	-11%	-8%	10%	-17%	?	11%	·	·	·
RE007 growth inh	0%	9%	21%	3%	6%	10%	1%	-5%	183%
Cruzain noTriton	·	5%	·	·	-11%	-1%	·	·	·

From PubChem
